# Bioassay records as filed in PubChem BioAssay.
# Cruzain inh noDet: blocks cruzain activity in detergent-free assay | P25779 | purified cruzain, Z-FR-AMC fluorescence, no detergent | Potency, µM, for the others: max response, negative = inhibition, actives largely listed as inhibitors | hit rate 2.3% among 200,000;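 further: plate controls were enzyme without inhibitor for no effect and buffer without enzyme for full effect; nearly all actives have a fitted effect of over 40% in size; top concentration of the series not given in the record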
# Target sequence (P25779 123-467 limits assumed): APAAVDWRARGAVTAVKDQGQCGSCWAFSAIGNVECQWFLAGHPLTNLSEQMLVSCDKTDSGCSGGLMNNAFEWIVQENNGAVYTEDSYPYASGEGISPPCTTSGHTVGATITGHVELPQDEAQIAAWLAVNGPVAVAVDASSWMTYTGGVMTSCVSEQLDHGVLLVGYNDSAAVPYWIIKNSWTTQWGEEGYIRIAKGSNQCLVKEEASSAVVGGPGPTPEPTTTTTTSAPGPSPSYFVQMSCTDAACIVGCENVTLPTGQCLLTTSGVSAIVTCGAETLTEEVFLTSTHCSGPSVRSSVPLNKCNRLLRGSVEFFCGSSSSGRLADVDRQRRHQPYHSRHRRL
#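 Purified cruzain at 1.5 nM, pre-incubated 15 min with compound at room temperature in 100 mM sodium acetate pH 5.5, 5 mM DTT, 0.00005% Triton X-100. Reaction started with 2 uM Z-FR-AMC; AMC fluorescence increase over 60 s gives rate.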
# NS1 inh: blocks influenza NS1 protein function; AID 2326; Potency, µM (highest dose often 46.1 µM), for the others: at the top dose activity, positive = more growth; S. cerevisiae slowed by influenza A NS1, growth recovery by OD600; hit rate 0.4% among 270,000; active means well fitted rising curve with a large enough effect; inconclusive means small, poorly fitted or top-dose-only effect; inactive means no such curve, though single readings can be large or run the other way; further: nearly all actives have a fitted effect of over 50% in size
#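 Read-out: OD600 growth recovery of NS1-expressing budding yeast. Cells grown overnight at 30C in -URA glucose medium, washed, resuspended and diluted 1:100 in 2% galactose assay medium, pH 6.0. Same strain lacking NS1 served as positive control.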
# StopGo reporter: FMDV 2A StopGo reporter, luciferase signal; human cells with a luciferase reporter of 2A StopGo recoding; control for the full effect not named in the record; AID 1159524; hit rate 1.2% among 410,000; Potency, µM (top dose mostly 57.9 µM), for the others: top-dose signal change, negative = less light; active = well fitted falling curve with a large enough effect; inconclusive = small, poorly fitted or top-dose-only effect; inactive = no such curve, though single readings can be large or run the other way; tested in HEK293T cells; further: on the % scale 0 is the no-effect control and ±100 the full control effect; nearly all actives have a fitted effect of over 45% in size; luciferase light after 4 h
# Lassa entry inh: blocks Lassa virus binding to or entry into cells; AID 540256; Potency, µM (doses to about 37.9 µM), inactives show top-dose activity change, negative = inhibition, hits mostly inhibitors; hit rate 1.2% among 300,000; Lassa virus pseudotype entry inhibition, cell reporter; control for the full effect not named in the record; active means well fitted inhibition curve with a large enough effect; inconclusive means small, poorly fitted or top-dose-only effect, or effect the other way; inactive means flat fitted curve, though single readings scatter; tested in HEK293 cells; further: on the % scale 0 is the no-effect control and ±100 the full control effect; nearly all actives have a fitted effect of over 50% in size; luciferase read-out
# Marburg entry inh: blocks Marburg virus binding to or entry into cells | Potency, µM (titrated, usually from 37.8 µM), inactives show at the highest dose activity change, negative = inhibition, usual class: inhibitors | hit rate 1.8% among 300,000 | Marburg virus pseudotyped entry inhibition, cell reporter; control for the full effect not named in the record; about a third of the inactives were read at about 46 µM; active = well fitted inhibition curve with a large enough effect; inconclusive = small, poorly fitted or top-dose-only effect, or effect the other way; inactive = flat fitted curve, though single readings scatter; tested in HEK293 cells; about a fifth of its hits are not listed in these tables; further: on the % scale 0 is the no-effect control and ±100 the full control effect; luciferase read-out
# RE007 growth inh: less growth of the S. pombe RE007 Vpr strain; S. pombe RE007 Vpr strain, BacTiter-Glo ATP luminescence, 24 h; control for the full effect not named in the record; Potency, µM (titrated, usually from 92.2 µM), for inactives: at the highest dose activity change, negative = less growth; hit rate 0.21% among 360,000; active = well fitted falling curve with a large enough effect; inconclusive = small, poorly fitted or top-dose-only effect; inactive = no such curve, though single readings can be large or run the other way;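 further: on the % scale 0 is the no-effect control and ±100 the full control effect; nearly all actives have a fitted effect of over 50% in size; the assay follows cell death caused by Vpr and the record does not say whether a fall means rescue or toxicity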
#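 Fission yeast strain RE007, carrying one chromosomally integrated HIV-1 vpr copy, was seeded at OD 0.01 in PMG+AL medium with 23 nL pinned compound. After 24 h at 30 °C and 99% humidity, viability was read by BacTiter-Glo luminescence.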
# Cruzain Triton: inhibitors of Trypanosoma cruzi cruzain with detergent; P25779; purified cruzain, Z-FR-AMC fluorescence, 0.01% Triton; Potency, µM, for inactives: max response, negative = inhibition, actives largely listed as inhibitors; hit rate 0.43% among 200,000; AID 1478;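 further: plate controls were neutral wells for no effect and buffer without enzyme for full effect; nearly all actives have a fitted effect of over 40% in size; top concentration of the series not given in the record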
#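 15 min RT preincubation of 1.5 nM cruzain with compound, then 2 uM Z-FR-AMC added; kinetic AMC fluorescence, 60 s delta. Triton X-100 0.01%, pH 5.5.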
# SARS PLpro yeast: inhibitors of SARS-CoV papain-like protease in yeast. S. cerevisiae expressing SARS-CoV PLpro, growth rescue; control for the full effect not named in the record. Potency, µM (highest dose often 32.9 µM), inactives show at the highest dose activity, positive = growth rescue. hit rate 0.19% among 330,000. AID 485353; active means well fitted rising curve with a large enough effect; inconclusive means small, poorly fitted or top-dose-only effect; inactive means no such curve, though single readings can be large or run the other way; further: 0% is about no effect; nearly all actives have a fitted effect of over 55% in size; growth read by luminescence after 48 h
# The depositor's hits bear a star; ? = inconclusive; nt = not tested or not shown; & = joins results of further samples; [ ] = another dose, or the depositor's remark. Unless noted, the call rests on the fitted dose curve; in most records, active means well fitted curve in the direction sought with a large enough effect; inconclusive means small, poorly fitted or top-dose-only effect, or another doubt; inactive means no such curve, though single readings can be large; an effect the other way counts as inactive or inconclusive. Potency means the concentration at half of the fitted maximal effect.
SMILES,Cruzain inh noDet,NS1 inh,StopGo reporter,Lassa entry inh,Marburg entry inh,RE007 growth inh,Cruzain Triton,SARS PLpro yeast
CCOc1ccc(-c2nn(-c3ccccc3)cc2C2NC(=O)NC(C)=C2C(=O)OC(C)C)cc1C (stereo not given),-3%,nt,1%,-20%[46.1 µM],?,nt,-14%,nt
CCCN1C(=O)c2ccccc2CC1(C)C(=O)NC1CCCCC1 (stereo not given),-1%,nt,-15%,nt,5%[46.1 µM],nt,1.5%,nt
Cn1c(N)c(C(=O)COC(=O)c2cc(-c3ccccc3)nc3ccccc23)c(=O)n(Cc2ccccc2)c1=O,13µM*,?,-4%,7%,30%,1%,-0.4%&1.5%,-22%
O=C(C1CCN(S(=O)(=O)c2c(Cl)cccc2Cl)CC1)N1CCCCCCC1,nt,nt,-9%,-17%,-15%[46.1 µM],-3%,nt,0%
O=C(NC1CCN(Cc2ccccc2)CC1)c1ccc(Cn2c(=O)c3ccccc3n(Cc3ccccc3)c2=O)cc1,5%,nt,-4%,3%[46.1 µM],6%[46.1 µM],nt,-0.3%,nt
CCCCN(C(=O)Cn1nnc2ccccc21)C(C(=O)NCCOC)c1ccc(OC)cc1 (stereo not given),11%,-3%,21%,9%,10%,-2%,6.0%,7%
CCn1c(COc2ccc(=O)n(-c3ccccc3)n2)nnc1SCc1ccccc1,0%,-13%,-17%,3%,4%,-20%,-5.6%,1%
Cc1cc(C)n2c(C)nnc2c1,nt,-3%,-3%,-14%[46.1 µM],-13%[46.1 µM],-11%,nt,2%
COc1ccc(-n2c(C)cc(/C=C3\SC(=S)N(Cc4ccco4)C3=O)c2C)cc1,7.9µM*,7%,10%,-2%,4%,16%,-4.6%,0%
CC1=C(C(N)=O)C(c2ccccc2Br)n2ncnc2N1 (stereo not given),9%,nt,-20%,5%[46.1 µM],nt,nt,-1.2%,nt
O=C(Nc1ccccc1)N1CCCCC1c1cccnc1 (stereo not given),-6%,5%,11%,-3%,-13%[46.1 µM],13%,-0.8%,1%
CC(C)(O)C#Cc1ccc(C(=O)N2CCCC2C(=O)O)s1 (stereo not given),1%,10%,1%,3%,3%[46.1 µM],8%,3.3%,3%
CCOc1ccc(-c2nnn(CC(=O)NCc3ccc(F)cc3)n2)cc1OCC,15%,-3%,11%,2%,17%,6%,-0.9%,3%
Cn1nc(-c2ccccc2F)c2cc(C(=O)N3CCN(c4ccc(F)cc4)CC3)sc21,2%,nt,?,-3%[46.1 µM],-9%[46.1 µM],nt,-7.7%,nt
CC1CC(C)CN(C(=O)Cn2c(=O)n(CCCCC(=O)NCc3ccco3)c(=O)c3ccccc32)C1 (stereo not given),-1%,-4%,-15%,-15%,?,12%,4.1%,2%
COc1cc(CN(C)CC2CCCN(CCc3ccccc3F)C2)cc(Cl)c1OC (stereo not given),nt,-9%,-19%,?,?,-18%,nt,3%
CC1Oc2ccccc2N(Cc2ccccc2Cl)C1=O (stereo not given),-3%,-11%,-5%,1%,0%,-8%,-2.8%,3%
Cc1ccc(Cn2nnc3c(=O)[nH]c(C4CCCN(S(=O)(=O)c5ccc(F)cc5)C4)nc32)cc1 (stereo not given),nt,3%,3%,-11%[46.1 µM],?,7%,nt,1%
O=C(Nc1ccc(/C=C/c2nc3ccccc3o2)cc1)c1cccc(C(F)(F)F)c1,7.9µM*,14%,15%,?,-17%,-6%,-5.5%,-4%
Cn1nc([N+](=O)[O-])nc1Sc1nnc(-c2ccccc2)o1,-2%,0%,22µM*,-27%,?,2%,-2.0%,-11%
Cc1ccc(/C=N/c2sc(Cc3ccccc3)c(C)c2C(N)=O)o1,24%,-3%,-33%,?,?,-2%,-11%,-4%
CC(=O)O[C@H]1C[C@@]2(C)[C@@H](C[C@@H](O)[C@H]3[C@@]4(C)CC[C@@H](O)[C@@H](C)C4CC[C@@]32C)/C1=C(\CCC=C(C)C)C(=O)O (stereo not given in full),?,?,-25%,-18%,0%,-5%[18.4 µM],-4.0%,5%
CC(=O)N1CCc2c(sc3c2c(=O)n(CCc2ccccc2)c(=O)n3Cc2ccccc2C)C1,?,nt,?,nt,?,nt,-6.4%,nt
COc1ccc(C2=CC(=O)CC(c3ccc(OC)cc3)C2)cc1 (stereo not given),nt,0%,0%,?,?,6%,nt,-1%
CCc1cc(C(=O)c2ccc(C)cc2)c(NC(=O)CCl)s1,-20%,-51%,0%,?,?,22%,-3.5%,-35%
COc1ccc(NC(=O)CN(C)S(=O)(=O)c2cccc3nsnc23)cc1OC,0%,-8%,-20%,16%&-3%,6%&19%,12%,-3.0%,1%
O=C(NCCO)c1ccc(Oc2ccc(C(F)(F)F)cc2[N+](=O)[O-])cc1,nt,0%,-11%,16%,-18%[46.1 µM],0%,nt,-1%
CN(C)c1ccc(-c2nnc(SCC3CCCO3)n2C)cc1 (stereo not given),nt,-2%,16%,-21%[46.1 µM],?,3%,nt,0%
O=C(c1cnn2c(C(F)(F)F)cc(-c3ccccc3)nc12)N1CCCCC1c1cccnc1 (stereo not given),nt,-3%,-29%,1%,?,0%,nt,-2%
COc1cc(NC(=O)c2c(F)c(F)c(F)c(F)c2F)c(OC)cc1Cl,-1%,-1%,?,-28%,?,1%,-0.9%,4%
CCCOc1ccc(C2CC(=O)Nc3c2c(C)nn3-c2nncc(-c3cccc(OC)c3)n2)cc1OC (stereo not given),-6%,nt,?,?,24%[46.1 µM],nt,-3.2%,nt
CC1CC(C)CN(C(=O)COC(=O)c2cc3ccccc3cc2O)C1 (stereo not given),-15%,-74%,-13%,20%,1%,-3%,-6.6%,-3%
COc1ccc(C(=O)NC2CCCCCC2)cc1S(=O)(=O)N1CCCc2ccccc21,-29%,6%,19%,7.1µM*,?,-9%,1.5%,0%
Cc1ccc(S(=O)(=O)N/N=C\c2cn(CC(N)=O)c3ccccc23)cc1C,nt,-13%,88%[activator],-6%,-11%,3%,nt,3%
CSc1ccccc1OCc1cc(C(=O)NCc2ccc(C)s2)no1,nt,-7%,27%,25%,-3%,-23%,nt,-1%
COC(=O)[C@H](CC(C)C)NC(=O)c1cc2c(cn1)[nH]c1ccccc12,nt,-4%,-18%,?,7%[46.1 µM],-4%,nt,2%
CCOc1ccc(NC(=O)CN(C)C(=O)c2cccnc2Sc2ccc(Cl)cc2)cc1OCC,nt,nt,-21%,8%,?,8%,nt,-1%
CC(C)Oc1cccc(C(=O)C2CCCN(Cc3ccc(Oc4ncccn4)cc3)C2)c1 (stereo not given),nt,-2%,?,-25%,?,-11%,nt,0%
O=C1/C(=C/c2cccs2)Sc2ccccc21,-13%,4%,16%,?,13%,?,-6.9%,13%
CC(C)CCNC(=O)CSc1nc2ccsc2c(=O)n1Cc1ccccc1Cl,-10%,nt,10%,5%[46.1 µM],nt,nt,-1.7%,nt
CCn1c(=S)sc2c(=O)n(CC(=O)Nc3ccccc3C(F)(F)F)c(C)nc21,nt,3%,-20%,nt,nt,-5%,nt,-1%
CCOC(=O)c1c(S(=O)(=O)N2CCC(C(=O)Nc3ccccc3OC)CC2)c(C)n(CC)c1C,?,nt,-17%,-3%[46.1 µM],nt,nt,2.7%,nt
CN(C)c1ccc(C=C2C=Cc3ccccc32)cc1,nt,nt,-1%,6.3µM*,-25%,-30%,nt,nt
CCC(CC)n1c(C)cc(=O)n1C(CC)CC,nt,nt,-9%,12%,9%,46%,nt,nt
CC(C)c1ccc(NC2CCCN(C(=O)CN3CCCC3=O)C2)cc1 (stereo not given),nt,-3%,-5%,nt,nt,-1%,nt,-2%
COC(=O)c1ccc(NC(=O)CCOc2ccccc2)cc1,6%,-10%,42%&34%[activator],-18%&1%[46.1 µM],9%&9%[46.1 µM],-25%,-9.0%,-1%
OCC1(Cc2ccccc2)CCCN(Cc2cn[nH]c2-c2ccccc2)C1 (stereo not given),nt,1%,-16%,-13%,?,-10%,nt,-1%
CCOC(=O)N1CCC(=NNC(=O)Cn2ccc(C(F)(F)F)n2)CC1,nt,nt,-8%,-2%,1%[46.1 µM],2%,nt,-3%
CC(C)CCOP(=O)(c1ccc(N(C)C)cc1)C(Nc1ccccc1)c1ccc(N(C)C)cc1 (stereo not given),nt,0%,0%,nt,nt,2%,nt,0%
O=C(CN1CCCCC1)Nc1ccc(S(=O)(=O)N2CCOCC2)cc1,16%,-7%,9%,3%,12%,2%,2.5%,5%
c1coc(CN2CN=C(Nc3nc4ccccc4s3)NC2)c1,13µM*,-23%,0%,7%,23%,-6%,?,-9%
COc1cccc2c(=O)c(C/C=C(/C)Cl)c(C)[nH]c12,5%,-90%,-7%,-1%,12%,19%,-4.1%,-8%
Cc1ccc(C(=O)Nc2nccs2)cc1,nt,-11%,15%,-29%,14%[46.1 µM],?,nt,-3%
COC(=O)C1=C(Nc2ccc(C)cc2)C=C(C)C(C(=O)OC)C1c1cccc(OC)c1 (stereo not given),-12%,9%,-6%,?,?,4%,-10%,-22%
CN1c2ccc([N+](=O)[O-])cc2C(C)(C)C12C=Cc1cc(C(=O)O)ccc1O2 (stereo not given),nt,-55%,?,nt,nt,-26%,nt,-6%
COc1cnc(-c2ccccn2)nc1N(C)c1ccccc1,nt,-64%,8%,?,?,?,nt,-8%
Cc1c(C(=O)OCC(=O)N(C)c2ccccc2)cccc1[N+](=O)[O-],nt,nt,-7%,1%,21%[14.2 µM],8%,nt,-2%
O=C(CSc1ccc(F)cc1)NCCc1ccc(Cl)cc1,nt,-7%,-5%,-21%,1%[46.1 µM],2%,nt,-24%
CC1CC(C)CN(C(=O)C2CCN(S(=O)(=O)c3cccs3)CC2)C1 (stereo not given),nt,-8%,7%,-13%,8%[46.1 µM],6%,nt,0%
